Assay outcomes: PubChem BioAssay, National Center for Advancing Translational Sciences (NCATS)
ClpP mod – qHTS Assay for Activators of ClpP; purified B. subtilis ClpP, FRET peptide cleavage, 20 min; ATP-dependent Clp protease proteolytic subunit (Bacillus subtilis (strain 168)), P80244; AID 651965, 2013; Potency, µM (top dose mostly 57.5 µM), for the others: at the highest dose activity change, negative = active; 340,000 compounds, 1.9% hits; active = well fitted falling curve with a large enough effect; inconclusive = small, poorly fitted or top-dose-only effect; inactive = no such curve, though single readings can be large or run the other way; also: potency is read from the fitted curve at half-maximal effect; the source files actives as falling curves though it sought activators and does not explain the sign; nearly all actives have a fitted effect of over 65% in size; many hits overshoot -100%
Target sequence (P80244 whole entry, looked up): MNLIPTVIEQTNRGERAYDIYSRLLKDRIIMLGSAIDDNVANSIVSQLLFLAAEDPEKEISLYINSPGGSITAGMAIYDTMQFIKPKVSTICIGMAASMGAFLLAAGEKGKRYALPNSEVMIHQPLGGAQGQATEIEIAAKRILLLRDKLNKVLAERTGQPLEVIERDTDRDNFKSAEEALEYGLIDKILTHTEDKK
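ClpP 10 microg/mL final, pH 8 Tris/KCl buffer with BSA, glycerol, Tween-20; compound pinned in; FRET-FV substrate; RT 20 min; Ex320/Em430; ΔFRET vs ADEP 5.8 microM, DMSO, no enzyme.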
Sfp PPTase inh – Sfp phosphopantetheinyl transferase inhibition | Potency, µM, without a hit: max response, negative = inhibition, usual class: inhibitors | Q9F4F7 | 310,000 compounds, 3.5% hits | Biochemical Sfp PPTase activity, qHTS; active = well fitted inhibition curve with a large enough effect; inconclusive = small, poorly fitted or top-dose-only effect, or another doubt; inactive = no such curve, though single readings can be large or run the other way;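 also: the enzyme is Sfp with the accession as filed and its product quenches rhodamine fluorescence; potency is read from the fitted curve at half-maximal effect; 0% = enzyme reaction without inhibitor and -100% = no enzyme wells; top concentration of the series not given in the record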
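Sfp 15 nM + cpd, 15 min RT; start w/ rhodamine-CoA 5 uM, BHQ-2-YbbR 12.5 uM (final); 50 mM Hepes pH 7.6, 10 mM MgCl2, 0.01% NP-40, 0.01% BSA; read 525/598 nm at 0 and 30 min.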
gsp antagonist – gsp mutant antagonism | gsp-mutant cells, cAMP HTRF, 30 min; control for the full effect not named in the record | 340,000 compounds, 0.4% hits | Potency, µM (highest dose often 76.9 µM), inactives show at the highest dose activity change, negative = inhibition, usual class: inhibitors; active = falling curve of any shape with a large fitted effect; inconclusive = falling curve, mostly with a smaller effect; inactive = flat or rising curve; cell line not stated here;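 also: intracellular cAMP measured with PDE inhibitor Ro 20-1724 present during compound exposure; potency is read from the fitted curve at half-maximal effect; % is scaled to controls: 0 for no effect and ±100 for the full control effect; nearly all actives have a fitted effect of over 65% in size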
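G418-selected cells were plated in DMEM/10% FBS for 16-24 h at 37C, then treated with compounds plus the PDE inhibitor […] (300 uM solution added) for 30 min at 37C. Intracellular cAMP was measured by HTRF after 30 min lysis at room temperature.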
Menin MLL FP FL – inhibitors of human menin-MLL interaction, wild-type MLL peptide. AID 1766. 290,000 tested, under 10 active. FP activity change, % at 61.4 µM. Fluorescence polarization, fluorescein-MLL peptide displacement from menin; inconclusive = falling polarisation curve, or a change in total fluorescence; inactive = total fluorescence flat and polarisation flat or rising; no compound was filed as active; the % refers to the polarisation; negative = inhibition;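 also: % of control where 0% means no effect; inhibitors lower the polarisation; unlabelled MLL peptide was the positive control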
gsp ag – activates gsp, the McCune-Albright syndrome mutation | gsp mutant cells, cAMP HTRF, 30 min; control for the full effect not named in the record | Potency, µM (highest dose often 76.9 µM), without a hit: at the top dose activation (cAMP increase), usual class: activators | 340,000 compounds, 0.13% hits | AID 624287; active = well fitted activation curve with a large enough effect; inconclusive = small, poorly fitted or top-dose-only effect, or another doubt; inactive = no such curve, though single readings can be large or run the other way; cell line not stated here;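 also: phosphodiesterase inhibitor Ro 20-1724 added with compounds to block cAMP breakdown; potency is read from the fitted curve at half-maximal effect; nearly all actives have a fitted effect of over 60% in size; about a fifth of the inactives were tested at one dose only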
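Cells in DMEM/10% FBS with G418 were pretreated with compounds in DMSO plus […] (300 uM stock) for 30 min at 37C. cAMP was measured by HTRF (cAMP-d2 plus anti-cAMP antibody-K) after 30 min at room temperature.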
CtBP-E1A inh – inhibitors of CtBP/E1A interaction | AlphaScreen GST-E1A/His-CtBP binding, 1536-well; active compounds read low; control for the full effect not named in the record | activity change, % (no concentration beside the values) | 340,000 compounds, 0.49% hits | AID 651724; in the data active means activity change below about -65%; inconclusive means about -30% to -65%; inactive means above about -30%; also: % is scaled to controls: 0 for no effect and ±100 for the full control effect
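Steps: dispense buffer (Tris pH 8.0, NaCl 300 mM, TCEP 1 mM, BSA, Tween 20); add 5X protein mix (GST-E1A, His-CtBP, 125 nM each); pin 23 nL compound; 2 h at 37 °C, dark; add 5X beads (50 ug/mL); 1 h; read.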
TRPV1 potentiator – human TRPV1 potentiation | 320,000 compounds, 0.02% hits | potentiation, % at 8.33 µM | TRPV1-expressing cells, Fluo-8 calcium influx, capsaicin EC20 potentiation; host cell line not named in the record; control for the full effect not named in the record | Q8NER1; active means potentiation above 80%; inconclusive means 30% to 80%; inactive means below 30%; also: 0% is about no effect
Target sequence (Q8NER1 whole entry, looked up): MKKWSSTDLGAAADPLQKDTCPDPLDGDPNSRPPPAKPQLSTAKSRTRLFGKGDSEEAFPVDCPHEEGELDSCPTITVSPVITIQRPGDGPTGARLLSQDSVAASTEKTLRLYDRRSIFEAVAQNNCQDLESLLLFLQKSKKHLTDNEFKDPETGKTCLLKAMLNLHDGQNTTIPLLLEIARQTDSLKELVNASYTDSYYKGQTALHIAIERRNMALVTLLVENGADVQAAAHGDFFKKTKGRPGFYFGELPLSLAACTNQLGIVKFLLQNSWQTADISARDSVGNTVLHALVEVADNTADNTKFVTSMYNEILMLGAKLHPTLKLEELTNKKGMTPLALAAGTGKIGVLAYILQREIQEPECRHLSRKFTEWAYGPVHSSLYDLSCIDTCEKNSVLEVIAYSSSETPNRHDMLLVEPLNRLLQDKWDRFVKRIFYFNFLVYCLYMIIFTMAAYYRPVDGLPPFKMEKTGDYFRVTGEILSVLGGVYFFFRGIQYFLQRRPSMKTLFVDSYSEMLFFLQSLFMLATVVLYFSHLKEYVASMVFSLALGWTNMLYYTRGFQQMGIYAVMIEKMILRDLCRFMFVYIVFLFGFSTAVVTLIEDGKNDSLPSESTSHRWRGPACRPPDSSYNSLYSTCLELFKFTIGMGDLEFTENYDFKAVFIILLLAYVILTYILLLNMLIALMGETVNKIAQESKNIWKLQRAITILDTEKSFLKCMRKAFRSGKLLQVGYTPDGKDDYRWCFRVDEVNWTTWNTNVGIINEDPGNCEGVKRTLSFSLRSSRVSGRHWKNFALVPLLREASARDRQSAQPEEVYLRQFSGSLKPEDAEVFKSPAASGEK
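TRPV1-expressing cells were cultured overnight at 35.5C and loaded with Fluo-8 calcium dye for 40 to 90 min at room temperature. After a 10 s baseline, compound was added and calcium influx was read kinetically for 3 min (ex 480/em 520 nm).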
Numbers without * were called inactive; ? = inconclusive; . = not tested or not shown; [ ] = another dose, or the depositor's remark.

SMILES | ClpP mod | Sfp PPTase inh | gsp antagonist | Menin MLL FP FL | gsp ag | CtBP-E1A inh | TRPV1 potentiator
CCOC(=O)C1=C(O)C(=O)N(c2ccc(S(N)(=O)=O)cc2)C1c1ccc(Cl)cc1 (stereo not drawn) | -17% | -6% | -4% | -1.2 | -9% | 6 | 5
O=C(/C=C/c1ccco1)NCC(=O)N/N=C/c1ccccc1[N+](=O)[O-] | 0.4% | ? | -13% | 1.4 | 6% | . | ?
COc1cc(OC)c2ccc(=O)oc2c1C(CCN1CCOCC1)c1ccc2c(c1)OCO2 (stereo not drawn) | -5.6% | 8% | -3% | ? | . | 0 | .
CN(C)c1oc(-c2ccc(OCc3ccccc3)cc2)nc1C#N | 13µM* | 1% | -16% | 0.1 | -13% | -12 | 6
O=C(NC1CCCCC1)N(CCN1CCOCC1)Cc1cc2cc3c(cc2[nH]c1=O)OCCO3 | 35µM* | 13% | 9% | 6.8 | -9% | 6 | 22
CC[n+]1cccc(-c2nc3ccccc3s2)c1 | ? | 4% | 5% | -2.9 | 27% | 9 | -2
COc1ccc(NC(=O)CSc2ccccc2)cn1 | . | 11% | 7% | -29 | -21% | 4 | -3
S=c1nc(C2CCCCC2)n(-c2ccccc2)[nH]1 | . | 20% | 7% | -4.4 | -17%[15.4 µM] | 2 | 1
COC(=O)C1=C(C)Nc2nnnn2C1c1ccccc1Cl (stereo not drawn) | -6.4% | 6% | 1% | -0.3 | -6% | 2 | 3
CC(OC1=CC(=O)CCC1)C(=O)c1ccccc1 (stereo not drawn) | 0.9% | 13% | 14% | 0.0 | 4% | 3 | -19
O=C(NCCCN1CCOCC1)c1ccccc1N1C(=O)[C@@H]2Cc3c([nH]c4ccccc34)C(c3ccc(F)cc3)N2C1=O (stereo partly drawn) | -3.8% | 8% | -8% | -8.5 | . | 0 | 3
CC1CC2=C(C(=O)O1)C(c1ccccc1)Nc1ccccc1N2 (stereo not drawn) | -1.2% | 18% | 2% | 1.2 | 7%[15.4 µM] | -17 | -7
Cc1ccc(NC2CCCN(C(=O)c3ccccc3-c3ncc[nH]3)C2)cc1C (stereo not drawn) | 0.2% | 4% | -8% | . | -14% | -3 | 1
CN(C)c1ccc(/C=C(\NC(=O)c2ccccc2)C(=O)NCCCn2ccnc2)cc1 | . | 4% | -22% | 3.7 | -15% | ? | 10
Clc1ccc(Oc2nc(N3CCOCC3)nc(N3CCOCC3)n2)c(C2CCCCC2)c1 | -0.4% | . | 8% | . | -16% | -4 | .
CCCCn1c(N)c(N(CC(C)C)C(=O)Cc2ccc(S(=O)(=O)N3CCOCC3)s2)c(=O)[nH]c1=O | -0.9% | . | 0% | . | -2% | 3 | .
Cc1ccc(CNC(=O)c2cc3c(=O)n(C)c4ccccc4c3n2C)cc1 | -7.1% | 10% | 6% | 1.0 | 7% | 2 | 7
CCn1c2ccc(Cl)cc2c2nc3ccccc3nc21 | 1.8% | -70% | 9% | -1.5 | -2% | 41 | -9
COc1ccccc1/C=N/NC(=O)CO | . | 10% | -3% | -9.5 | -13% | 14 | -8
Cc1ccc(S(=O)(=O)NC2(C(F)(F)F)NC(=O)N(CCc3ccccc3)C2=O)cc1 (stereo not drawn) | -0.4% | 30%[activator] | -3% | 1.4 | 7%[15.4 µM] | -1 | 0
CC(C)C(NC(=O)c1ccccc1F)C(=O)OCC(=O)c1ccc(F)cc1 (stereo not drawn) | . | 19% | -4% | -4.0 | 18%[15.4 µM] | 1 | -14
Cc1ccc(CN2CCN(/N=C/c3cccn3C)CC2)c(C)c1 | -0.9% | -6% | -15% | 1.7 | -23% | . | -6
CCCn1c(N)c(C(c2ccc(C(=O)OC)cc2)N2CCN(c3ccccc3)CC2)c(=O)[nH]c1=O (stereo not drawn) | 0.9% | -17% | 9% | -2.3 | 17% | 2 | -2
CCCCn1c(N)c(N(CC(C)C)C(=O)c2oc3c(Cl)cccc3c2C)c(=O)[nH]c1=O | . | . | 7% | . | 10%[15.4 µM] | -2 | 7
O=C(Nc1ccc(NC(=O)c2cccs2)c(Cl)c1)c1cccs1 | . | 9% | -20% | 0.0 | -4% | -11 | 28
COC(=O)c1ccc(/C=N\n2c(C)nnc2C)cc1 | -2.6% | 14% | 19% | -0.3 | -2% | -3 | -9
C[C@H]1CCCCO[C@H](CN(C)Cc2ccccc2)[C@@H](C)CN([C@@H](C)CO)C(=O)c2cc(NC(=O)CCC(F)(F)F)ccc2O1 | -4.1% | . | . | . | 6% | -13 | .
CCOc1ccc2oc(C(=O)OCC(=O)NCc3ccc(OC)cc3)c(C)c2c1 | 3.9% | . | 4% | . | -31%[inhibitor] | 1 | ?
CCC1CCCCN1CCCNC(=O)CN1C(=O)COc2ccc(S(=O)(=O)N3CCC(C)CC3)cc21 (stereo not drawn) | 0.4% | 6% | -9% | . | 15% | 4 | -5
Cc1cc(C(=O)CCl)c(C)n1-c1c(C)n(C)n(-c2ccccc2)c1=O | . | 13% | 5% | -1.2 | -38% | -1 | 7
COc1ccc(C(=O)C[n+]2ccc(N(C)C)cc2)cc1 | . | 4% | 5% | -0.2 | -21%[15.4 µM] | 8 | -10
COc1ccc(NC(=S)NCc2ccc3c(c2)cc(C)n3C)cc1 | -11% | 4% | -1% | 9.4 | -1% | -6 | 3
Cc1ccc(C(=O)OCC2OC3OC(C)(C)OC3C2O)cc1 (stereo not drawn) | 1.2% | 0% | 16% | 2.1 | -12%[15.4 µM] | 6 | -7
COc1ccc(-c2nc3ccccc3nc2-c2ccccc2)cc1 | . | -6% | -16% | -5.3 | 7%[15.4 µM] | 34 | -6
COc1ccc2c(CCNC(=O)/C=C/c3ccc(OC)c(OC)c3)c[nH]c2c1 | . | 0% | -5% | 4.9 | ? | -6 | 6
c1ccc(-c2nnnn2-c2ccccn2)cc1 | . | . | 7% | . | -1% | 4 | .

2 entries from above, with two lines to a compound.
Every second line gives: ClpP mod	Sfp PPTase inh	gsp antagonist	Menin MLL FP FL	gsp ag	CtBP-E1A inh	TRPV1 potentiator
- CC(C)C(NC(=O)c1ccccc1F)C(=O)OCC(=O)c1ccc(F)cc1 (stereo not drawn)
    .	19%	-4%	-4.0	18%[15.4 µM]	1	-14
- Cc1ccc(CN2CCN(/N=C/c3cccn3C)CC2)c(C)c1
    -0.9%	-6%	-15%	1.7	-23%	.	-6

Continuation:
SMILES | ClpP mod | Sfp PPTase inh | gsp antagonist | Menin MLL FP FL | gsp ag | CtBP-E1A inh | TRPV1 potentiator
c1ccc(Nc2nc(-c3ccncc3)nc3ccccc23)cc1 | -5.5% | 12% | -17% | 3.3 | 5% | -3 | 0
CCCn1nnc(NC(=O)c2ccc(-c3cccc(Cl)c3)o2)n1 | ? | -4% | -12% | 7.1 | -14% | -15 | -16
Cc1cc(NC(=O)Cc2ccccc2)ccc1NC(=O)c1cccs1 | . | 10% | -4% | 4.9 | ? | 0 | 1
O=C(NCC1CCCO1)c1ccc(S(=O)(=O)N2CCC(c3nc4ccc(Cl)cc4[nH]3)CC2)cc1 (stereo not drawn) | -0.8% | 7% | -17% | 4.5 | 11% | -13 | 2
COc1ccc(Cc2nnc(SCC(=O)Nc3ccc(C)c(C)c3)o2)cc1OC | . | 15% | 1% | 1.6 | ? | -7 | -4
Cc1ccc(C2=C(O)C(=O)C(c3ccc(C)cc3)=C(O)C2=O)cc1 | -0.4% | . | -19% | . | 16% | 1 | .
O=S(=O)(c1ccc(NCCCO)nc1)N1CCOCC1 | 0.2% | . | 14% | . | 13%[15.4 µM] | 3 | 0
COC(=O)C(C(=O)OC)C1C=CCN(C(C)=O)C1 (stereo not drawn) | 4.0% | . | 3% | . | . | -14 | .
O=S(=O)(NCCc1ccncc1)c1ccc(S(=O)(=O)N2CCCCCC2)cc1 | -0.6% | -3% | 1% | 5.1 | 13% | 10 | -31
COc1ccccc1NC(=O)CSc1nnc(CSc2nc(C)cc(C)n2)o1 | 0.4% | -3% | -2% | -0.2 | -54%[inhibitor] | 2 | 6
CN(Cc1ccc(-n2cccn2)cc1)Cc1cn(C)nc1-c1ccccc1F | . | 14% | 8% | -1.8 | 2% | 1 | 0
COc1cc(NC(=O)CSc2nc(C)cc(C)n2)cc(OC)c1OC | -1.3% | 12% | 7% | 1.2 | -24%[15.4 µM] | -1 | ?
COC(=O)c1sc2nc3c(cc2c1N)COC(C)(C)C3 | -3.7% | ? | -2% | 1.0 | -1% | 10 | 3
COc1ccc(NC(=O)c2ccsc2NC(C)=O)cc1 | . | -11% | 0% | -4.4 | -7%[15.4 µM] | -11 | ?
O=C1CN(C(=O)c2ccccc2F)C(c2ccccc2)c2cc(F)ccc2N1 (stereo not drawn) | -3.0% | 8% | 5% | -1.0 | -18% | -3 | -9
CCS(=O)(=O)N1CCC(C(=O)NCCN2CCOCC2)CC1 | 1.1% | 14% | 10% | 6.1 | -18% | 5 | 16
O=C(NCC(c1ccco1)N1CCN(c2ccccc2)CC1)c1ccco1 (stereo not drawn) | -0.4% | . | 8% | . | ? | 7 | -3
Cc1ccc(NCc2ccco2)cc1C | -16% | 79µM* | 4% | 2.9 | -1% | -9 | -6
COc1ccccc1NC(=O)C1CC(=O)N(c2ccc(F)cc2)C1 (stereo not drawn) | -3.0% | 16% | 3% | -0.6 | 7% | -6 | -5
Cc1ccc(NC(=O)c2ccc(OCc3c(C)noc3C)cc2)nc1 | -0.4% | . | -8% | . | 9% | . | -16
COc1cccc(N2CCN(Cc3ncc(-c4ccccc4)o3)CC2)c1 | . | 8% | 2% | 6.3 | -5%[15.4 µM] | -21 | 3
Cc1ccc(NC(=O)CN(C)C(=O)COc2ccc(C(=O)c3ccc(F)cc3)cc2)cc1 | -0.2% | 0% | -25% | 2.9 | 32% | . | -3
CN(Cc1nc2ccccc2n1C)c1ccccc1 | -1.6% | -1% | 0% | 2.5 | -11%[15.4 µM] | -1 | 19
COc1ccc(C(=O)C2CCCN(C(=O)c3cc(C4CC4)[nH]n3)C2)c(C)c1 (stereo not drawn) | -0.1% | 15% | -26% | 7.0 | 14% | -1 | 3
CCOc1ccc(C(=O)NCCCN2CCCC2=O)cc1 | 1.4% | 16% | 8% | 1.9 | -3% | -1 | -3

Compounds as they come; about 5.3% have a hit in one of these screens.
